# Ba CapD inh = inhibitors of Bacillus anthracis CapD enzyme | purified CapD enzyme, fluorescence intensity read-out; stronger effect = lower value; some hits fall short of the stated cut | z-score (test concentration not listed) | hit rate 0.23% among 140,000 | AID 492967;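 active = z-score under -4 in either of two replicates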;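 also: stock transfer was 100 nL into about 40 µL; score is relative to mean and spread of the plate; one replicate is shown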
# AID504770 = growth inhibitors of E. coli YBA685 in a screen for V. cholerae RctB (chromosome II replication) inhibitors; E. coli YBA685 rctB-dependent plasmid, OD600 growth, 3 h; stronger effect = lower value; z-score (no concentration beside the values); hit rate 0.27% among 130,000; AID 504770;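 active = z-score under -2 on both plates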;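 also: wells of about 30 µL received 100 nL stock; score is relative to mean and SD of the test wells; the first replicate is given; strong numbers were not always called active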
# An asterisk follows results filed as active; x = not tested or not shown.
# Start of the listing, in advance, 3 compounds:
cpd	smiles	Ba CapD inh	AID504770
1	O=C(Cn1ncc2ccccc21)Nc1cc(-c2cccc(Cl)c2)no1	-1.2	0.65
2	CCOC(=O)c1ccc2c(c1)ncn2/C=C\NC(=O)c1ccc(Cl)cc1	0.9	0.2
3	COc1ccc(N(C)C(=O)c2cn(CC(C)C)c(=O)c3cc(OC)c(OC)cc23)cc1	0.18	x

# This part in full, from the start:
cpd	smiles	Ba CapD inh	AID504770
1	O=C(Cn1ncc2ccccc21)Nc1cc(-c2cccc(Cl)c2)no1	-1.2	0.65
2	CCOC(=O)c1ccc2c(c1)ncn2/C=C\NC(=O)c1ccc(Cl)cc1	0.9	0.2
3	COc1ccc(N(C)C(=O)c2cn(CC(C)C)c(=O)c3cc(OC)c(OC)cc23)cc1	0.18	x
4	O=C(Nc1ccc(Cl)cc1)c1cc(=O)n(Cc2ccccc2)c(=O)[nH]1	0.3	x
5	Cc1cccc(N(CC(=O)Nc2ccccc2)S(C)(=O)=O)c1C	52	-2.9
6	Cc1sc(-c2ccsc2)nc1-c1ccc(-c2ccccc2F)cc1	1.6	x
7	COCCn1c(SCc2nc3ccccc3o2)nc2ccccc21	x	-0.95
8	Nc1ccc([N+](=O)[O-])cc1-c1n[nH]c(=S)[nH]c1=O	-0.9	x
9	O=C(Cc1ccc(F)cc1)N/N=C/c1ccc(C(=O)O)cc1	x	0.15
10	COC(=O)C1=C(C)NC(C)=C(C(=O)OC)C1C(=O)OCC(=O)Nc1cccc2nsnc12	x	-0.5
11	O=C(O)c1ccc2c(c1)C1C(Cl)C(Sc3ccccc3[N+](=O)[O-])CC1C(c1ccccc1Cl)N2 (centres undefined)	-0.28	x
12	O=C1/C(=C/c2ccc(OC(F)F)cc2)NC(=S)N1Cc1ccco1	x	1
13	O=S1(=O)CCN(Cc2ccco2)CC1	-0.33	x
14	CN(C)c1ccc(C(=O)OCC(=O)Nc2ccc(F)cc2F)cc1	0.56	-0.35
15	CCN(CC)C(=O)c1sc2nc3c(cc2c1N)C(=O)CC(C)(C)C3	-0.25	1
16	COC(=O)c1ccc(OCC(O)CN2C(=O)c3ccccc3S2(=O)=O)cc1 (centres undefined)	-1.3	x
17	CCOC(=O)c1sc2nc(CC(=O)OC)nc(Nc3cc(Cl)ccc3OC)c2c1C	0.85	x
18	Cc1cc(I)ccc1NC(=O)c1ccccc1N(C)S(C)(=O)=O	-0.68	-0.95
19	O=C1CC[C@@]2(O)[C@H]3Cc4ccc(O)c5c4C2(CCN3CC2CC2)[C@H]1O5	0	0.9
20	CS(=O)(=O)c1cc(C#N)c(=O)[nH]c1-c1cccc(F)c1	-0.55	x
21	CC(C)CC(=O)NC(C)C(c1cccs1)N1CCN(c2ccccc2)CC1 (centres undefined)	0.94	-1
22	CCCCN(C)C(=O)Cn1ncc2c1-c1ccccc1OC2	-0.14	-1.4
23	COCC(=O)NCc1ccc2c(c1)OCO2	x	1.7
24	CC(C)NS(=O)(=O)c1ccc(Br)c(C(=O)OCC(=O)Nc2nnc(-c3ccccc3)o2)c1	x	-0.5
25	COc1ccc(CCNc2nc(SCC(=O)N3CCC(C)CC3)nc3ccccc23)cc1OC	-0.21	x
26	CC1=NOC(=O)/C1=C/c1ccc(-c2ccc(Cl)cc2)o1	0.8	-0.65
27	CN(C)S(=O)(=O)Oc1ccc(C(=O)Nc2ccccc2Cl)cc1	-1.4	x
28	CC1=CC(=O)C(Br)=CC1=O	-1.4	x
29	O=C(O)c1ccc2nc(N3CCCCC3)sc2c1	0.43	0.35
30	Cc1c(NC(=O)CCN2C(=S)NC(C)(C)CC2C)c(=O)n(-c2ccccc2)n1C (centres undefined)	0.56	x
31	O=C(Oc1ccc(Cl)cc1)C1c2ccccc2Oc2ccccc21	-0.52	-1.1
32	NC(=O)c1c(NC(=O)CN2C(=O)S/C(=C/c3c(Cl)cccc3Cl)C2=O)sc2c1CCCC2	-0.33	x
33	COc1cccc(NC(=O)Cn2c(C(F)(F)F)nc3ccccc32)c1	-0.31	-0.05
34	O=S(=O)(c1ccc(C(F)(F)F)cc1)n1nccc1-c1cc(-c2ccccc2)no1	9.4	-0.6
35	Cc1nc(-c2ccc(CN)s2)cs1	x	-0.15
36	Cc1ccccc1NC1CC(C)N(C(=O)CN2C(=O)c3ccccc3C2=O)c2c(C)cccc21 (centres undefined)	-0.87	-1
37	O=C(OCCc1ccc(Br)cc1)N1CCN(CCC2CCCCC2)CC1	0.44	x
38	O=C(CSC1CCCC1)c1ccco1	-0.68	1
39	CCOC(=O)C1=C(C)N=c2s/c(=C\c3cccnc3)c(=O)n2C1c1ccc(OC)c(Br)c1 (centres undefined)	-0.57	x
40	Cc1ccc(Sc2ccc(COc3cccc(Cl)c3)cc2[N+](=O)[O-])cc1	0.13	x

# One compound at a time, from the list above:
# Results for NC(=O)c1c(NC(=O)CN2C(=O)S/C(=C/c3c(Cl)cccc3Cl)C2=O)sc2c1CCCC2 = Ba CapD inh = -0.33; AID504770 = x
# Results for O=C(OCCc1ccc(Br)cc1)N1CCN(CCC2CCCCC2)CC1 = Ba CapD inh = 0.44; AID504770 = x

# The results go on.
cpd	smiles	Ba CapD inh	AID504770
41	CC(O)C1(C)CC2C=CC1C2 (centres undefined)	-0.15	x
42	CCOC(=O)C1C(=O)C=C(c2ccco2)CC1c1ccc(CC)cc1 (centres undefined)	30	-0.25
43	CCCN(CCC)Cc1csc2c1CCCC2	-0.03	1.8
44	CCCS(=O)(=O)Cc1nnc(-c2cc(Cl)cc(Cl)c2)o1	-0.54	0.75
45	CC1CCCN(C2(O)C(=O)N(Cc3ccccc3)c3ccccc32)C1 (centres undefined)	-0.72	-0.15
46	O=C(CCSSCCC(=O)NCc1ccccc1)NCc1ccccc1	-1	x
47	Cc1ccc(C)c(N2CCN(c3cc(C)nn4cnnc34)CC2)c1	x	2.8
48	O=C(COc1ccc2ccccc2c1CN1CCOCC1)N1CCc2ccccc21	x	-0.8
49	OCCSC1SC(=S)SC1SCCO (centres undefined)	x	0.7
50	O=c1c2cn[nH]c2[nH]c(=S)n1-c1ccc(Cl)cc1	-0.32	x
51	COc1ccccc1CCOC(=O)NCC1C(C=C(C)C)C1(C)C (centres undefined)	-0.47	x
52	Nc1ccc(Sc2nc3ccccc3[nH]2)c(Cl)c1	0.05	-0.4
53	Nc1ccc(S(=O)(=O)Nc2cccc(C(F)(F)F)c2)cc1	-0.54	x
54	Cc1nn(-c2ccccc2)c(Cl)c1C=C(C#N)C#N	x	1.1
55	COc1cc(OC)cc(N2CCN(C(=O)OCC3CCCCN3Cc3ccccc3SC(C)(C)C)CC2)c1 (centres undefined)	-0.33	x
56	CCc1ccc(NC(=O)CSc2nnc3[nH]c(=O)ccn23)cc1	x	-0.35
57	O=c1onc(-c2c(F)cccc2F)n1-c1cccnc1	0.2	-0.65
58	O=C(COC(=O)C1CC1)c1ccc(OC(F)F)cc1	x	-1
59	O=C(NCCc1ccccc1)c1cc2c(s1)CS(=O)(=O)C2	0.17	-0.3
60	CC(C)c1ccc(NC(=O)N2CCC(c3nc4ccccc4o3)CC2)cc1	x	0.65
61	O=C(CSc1nc(-c2cccs2)cc(C(F)(F)F)n1)OCCCc1ccccc1	0.5	-1.1
62	Cc1ccc(C)c(C(=O)OCC(=O)NCc2ccco2)c1	-0.18	-0.15
63	COC(=O)CN1C(=O)COc2cc(S(=O)(=O)NC3CCCC3)ccc21	0.92	-0.3
64	COc1ccc(CCC(=O)NCc2cccs2)cc1	x	0.55
65	Cc1nn(-c2ccccc2)c(Cl)c1C(=O)NCCSCc1ccco1	x	-0.15
66	O=C(CCN1C(=O)c2ccccc2C1=O)NCCCn1ccnc1	-0.46	x
67	Clc1ccc(Oc2nc(Oc3ccc(Cl)cc3)nc(N3CCSCC3)n2)cc1	0.37	-0.75
68	COc1cc(-n2c(C)nc3cc(C(=O)NCc4ccccc4Cl)ccc32)cc(OC)c1OC	0.14	x
69	O=P(O)(CN1CCCCCC1)CN1CCCCCC1	0.88	-0.35
70	Cc1cnc(C(=O)OC(C)C(=O)N(C)c2ccccc2)cn1 (centres undefined)	x	-0.8
71	CC1CCCC(C)N1C(=O)CSc1nccn1C (centres undefined)	-0.52	-0.35
72	O=C(O)Cn1c(=O)oc2cc(S(=O)(=O)NC3CCCCC3)ccc21	x	-0.5
73	CC12CC(c3ccccc3O1)C(C(=O)N1CCOCC1)C(=O)N2 (centres undefined)	-0.1	x
74	COc1ccc(-c2nnc(NC(=O)c3ccc4c(c3)OCO4)s2)c(OC)c1	x	0.6
75	O=C(NC(Cc1ccccc1)C(=O)N1CCC2(CC1)OCCO2)C1CCCCC1 (centres undefined)	-0.31	-0.8
76	Cc1ccc(N=Cc2c(C)[nH]c3ccccc23)cc1C	-0.66	0.15
77	NC(=O)c1cc(NC(=O)CCS(=O)(=O)c2ccccc2Cl)cc(C(N)=O)c1	x	-0.25
78	CC(=O)OCCNc1cc(Cl)c2noc3c2c1C(=O)c1ccccc1-3	0.1	-0.45
79	O=[N+]([O-])c1cc(Br)c2nsnc2c1Sc1ncnc2ccccc12	-0.42	x
80	CCOC(=O)c1ccc(NC2=NC(C)(C)Cc3ccccc32)cc1	-0.45	x
81	Cc1c(CC#N)ccc2ccccc12	0.11	-1.9
82	CCOC(=O)c1c(CN2CCN(CC#N)CC2)n(-c2ccccc2)c2cc(Br)c(OC)cc12	-0.97	x
83	CC1CCN(C(=O)COC(=O)c2ccc(I)cc2)CC1	-1.1	-0.8
84	COC(=O)c1sc(-c2cccs2)cc1NS(=O)(=O)c1cn(C)cn1	3.9	1.6
85	Cc1cc(C(=O)OCC(=O)Nc2ccccc2)c(C)n1-c1ccccc1	-0.83	-1.1
86	S=C(NCC1CCCO1)N/N=C/c1ccco1 (centres undefined)	-2.1	x
87	CCOc1ccccc1C1CC(=O)Nc2c1ccc1ccccc21 (centres undefined)	x	-0.4
88	ClCc1cn(-c2ccccc2)nc1-c1ccccc1	-0.12	-0.9
89	O=C1N=c2ccc(Br)cc2=C1c1sc(=S)n(NS(=O)(=O)c2ccccc2)c1O	-1.6	x
90	CCCCCCOCCOCCOC(=O)NNC(=O)c1noc(C)c1-c1csc(C)n1	-0.56	x

# Later entries
cpd	smiles	Ba CapD inh	AID504770
91	CCc1cccc(CC)c1N=C1SCCN1CCO	x	-0.5
92	C/C(=N\NC(=O)C1CC1)c1ccc(-n2ccnc2)cc1	x	0.1
93	CCOC(=O)N1CCN(C(=O)c2ccc3c(=O)n(-c4cccc(C(F)(F)F)c4)c(=S)[nH]c3c2)CC1	-0.57	x
94	c1ccc(-c2cc(NCCN3CCCCC3)c3ccccc3n2)cc1	3.9	0.4
95	CN(CC(=O)Nc1ccccc1Cl)Cn1nc(-c2ccco2)oc1=S	x	-0.2
96	Cc1ccc(-c2c(C#N)c(N)n(C)c(=O)c2C#N)c(C)c1	-0.21	0.7
97	CC(=O)N1CCC(N(C(=O)CSc2nc(C)cc(C)n2)C2CC2)CC1	0.2	x
98	COc1cc(OC)c(C2SCCN2C(=O)c2cc3ccccc3oc2=O)cc1OC (centres undefined)	-0.53	x
99	CN1C(=O)C(C)(C)N(Cc2ccccc2)c2ccccc21	0.07	0.8
100	COc1c(O)cc2c(c1OC)CC(=O)CCC2	0.035	-0.65
101	O=C(CS(=O)(=O)Nc1ccc(Cl)cc1)CS(=O)(=O)Nc1ccc(Cl)cc1	-0.26	x
102	CCOC(=O)c1cnc2c(-c3ccc(Cl)cc3)cnn2c1C	0.49	1.2
103	CS(=O)(=O)c1ccccc1C(=O)N(Cc1cccs1)c1ccc2c(c1)OCCO2	x	-0.5
104	CCOC(=O)c1cccc(NS(=O)(=O)c2cc(C(=O)OCC)n(C)c2)c1	0.43	0.05
105	O=S(=O)(c1ccccc1)n1c(SCc2c(F)cccc2F)nc2ccccc21	-0.14	x
106	Oc1ccc(Oc2c(Cl)cncc2Cl)cc1	-0.05	0.6
107	CS(=O)(=O)CCC(C(=O)Oc1cccc2cccnc12)N1C(=O)c2ccccc2C1=O (centres undefined)	-0.06	-0.7
108	CN1CCN(C(=O)c2cc(Oc3c(F)c(F)c(F)c(F)c3F)cc(C(=O)N3CCN(C)CC3)c2)CC1	x	-0.3
109	CCCN1CCN(C(=O)c2cccc3c2C(=O)N(Cc2cccnc2)C3)CC1	-0.27	-0.6
110	COc1ccc(-c2nc(CN3C(=O)CSc4nc(C)cc(C)c43)c(C)o2)cc1OC	0.03	-1.2
111	CC(CNC(=O)c1nnc(Cc2ccc(Cl)cc2)o1)c1ccccc1 (centres undefined)	-0.26	-0.15
112	NC(=O)COC(=O)c1cccc(S(=O)(=O)N2CCN(c3ccccc3)CC2)c1	x	-1.2
113	c1ccc(-n2nnnc2SCCSc2nnnn2-c2ccccc2)cc1	-0.71	0
114	C/C(=N\NC(N)=S)C1(C)N(O)C(C)(C)C(c2cccs2)=[N+]1[O-] (centres undefined)	x	0.05
115	CN1CCN(c2nc3ccccn3c(=O)c2/C=C2\SC(=S)N(CCc3ccccc3)C2=O)CC1	-0.38	x
116	N#Cc1ccc(Br)cc1	x	-0.5
117	O=c1c2cc([N+](=O)[O-])ccc2oc2ncccc12	0.17	x
118	COCCN1Cc2cccc(C(=O)N3CCN(c4ccccc4)CC3)c2C1=O	0.035	1.6
119	COC(=O)c1ccccc1N1C(=O)CC(Sc2ccccc2N)C1=O (centres undefined)	0.12	0.8
120	COc1ccccc1OCCN(C#N)c1nc(N(C)C)nc(N(C)C)n1	-0.45	x
121	CCCN(CCC)S(=O)(=O)c1c(C(=O)OCC)c(C)n(C)c1C	-0.075	-1.4
122	O=C(c1cc2c(s1)CCC2)N1CCN(S(=O)(=O)c2cccc(Br)c2)CC1	x	-0.9
123	Cn1c[n+](C)cc1C(O)c1ccccc1 (centres undefined)	15	-0.65
124	Cc1ccc(S(=O)(=O)OCC(C)(C)[N+](=O)[O-])cc1	0.28	x
125	Cc1ccc(OCc2ccc(Sc3ccc(C)cc3)c([N+](=O)[O-])c2)cc1	-0.05	x

# Some of the compounds tested (hit frequency here may not be typical).
